Assay outcomes (PubChem)
HPGD block = HPGD (human) dehydrogenase inhibition; P15428; purified HPGD, NADH fluorescence kinetic, PGE2 substrate; 150,000 compounds, 4.3% hits; Potency, µM, for inactives: at the top dose activity change, negative = inhibition, actives largely listed as inhibitors; AID 894; active = well fitted inhibition curve with a large enough effect (not every such curve was filed as active); inconclusive = small, poorly fitted or top-dose-only effect, or another doubt; inactive = no such curve, though single readings can be large or run the other way;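 also: top concentration of the series not given in the record; plate controls included wells without enzyme; inactives centre near -10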
Target sequence (P15428 whole entry, looked up): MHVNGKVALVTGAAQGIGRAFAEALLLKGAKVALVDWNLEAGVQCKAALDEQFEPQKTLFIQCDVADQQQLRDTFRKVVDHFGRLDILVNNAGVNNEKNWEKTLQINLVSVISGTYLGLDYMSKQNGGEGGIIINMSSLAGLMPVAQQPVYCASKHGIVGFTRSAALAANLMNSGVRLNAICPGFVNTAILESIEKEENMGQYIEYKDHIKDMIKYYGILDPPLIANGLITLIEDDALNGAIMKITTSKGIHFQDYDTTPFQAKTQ
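20 nM HPGD preincubated 15 min at room temperature with compound in 50 mM Tris-HCl pH 8, 0.01% Tween 20. Started with 1 mM NAD+ and 30 uM prostaglandin E2; NADH fluorescence (360/450 nm) read 5 times over 30-s intervals, last minus first.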
The depositor's hits bear a star; ? = inconclusive. % is scaled to controls: 0 for no effect and ±100 for the full control effect; potency is read from the fitted curve at half-maximal effect. A portion of the library; count on the stated rates, not on these rows.

Preview (2 entries):
SMILES	HPGD block
CCSc1oc(-c2ccco2)nc1S(=O)(=O)c1ccc(F)cc1	?
CCN(c1ccccc1)S(=O)(=O)c1cnc[nH]1	-5.0%

This part in full, repeating the preview:
SMILES	HPGD block
CCSc1oc(-c2ccco2)nc1S(=O)(=O)c1ccc(F)cc1	?
CCN(c1ccccc1)S(=O)(=O)c1cnc[nH]1	-5.0%
Cc1cc(NC(=O)c2cccc(S(=O)(=O)N3CCOCC3)c2)no1	-5.5%
CCN(CC(=O)Nc1cccc(OC)c1)c1ncnc2sc(C)c(C)c12	-15.3%
CNC(=O)CN(c1ccc(F)cc1)S(=O)(=O)c1cc(C)ccc1OC	-1.5%
CC1(C(=O)O)CCC(C(=O)N2CCOCC2)C1(C)C (configuration not stated)	-4.4%
O=C(c1coc(=O)c(Br)c1)N1CCCc2ccccc21	?
CC(C)N1C(=O)N(c2ccccc2)C(C)(O)CC1(C)C (configuration not stated)	-7.4%
Cc1ccc(C)c2c1cc(C)c1nnc(SCC(=O)Nc3nc4c(s3)CCCC4)n12	0.3%
CC(C)N(Cc1nc(-c2ccccc2)no1)C(=O)c1ccc2c(c1)OCO2	-4.1%
CS(=O)(=O)N(CC(=O)Nc1ccc(F)cc1F)c1cccc([N+](=O)[O-])c1	-5.0%
Cc1cccc(NC(=O)c2onc3c2CCCC3)c1C	-11.9%
Cc1n[nH]c(=S)n1/N=C/c1ccccc1OCc1ccc(Cl)cc1	10µM*
C(=C\c1ccccc1)/C=N/Nc1nc(N2CCOCC2)nc(N2CCOCC2)n1	-8.5%
O=C(Nc1nnc(CCS(=O)(=O)c2ccc3ccccc3c2)s1)c1cccs1	-15.3%
Cn1c(N/N=C\c2cccc(O)c2)cc(=O)n(C)c1=O	-10.6%
Cc1cc(C)cc(NC(=S)NC2CC3CCC(C2)N3Cc2ccco2)c1 (configuration not stated)	-25.8%
Cc1ccc(C2=Nc3ccccc3NC(C)(c3ccc(C)o3)C2)o1 (configuration not stated)	-15.8%
COC(=O)c1c(NC(=O)COC(=O)CNC(=O)C2CCCCC2)sc(C)c1C	-16.0%
O=C(NNC(=S)Nc1ccccc1)c1cccc(Br)c1	-6.7%
COc1ccc(NC(=O)CN(C)S(=O)(=O)c2ccccc2)c([N+](=O)[O-])c1	-2.3%
COc1nn(CC(=O)N2N=C(C)CC2(O)C(F)F)cc1[N+](=O)[O-] (configuration not stated)	-11.1%
CC(C)OP(=O)(OC(C)C)C(Nc1ccccc1)c1cccc2c1OCO2 (configuration not stated)	-17.6%
C=CCN(C(=O)c1cccc(S(=O)(=O)N2CCN(C)CC2)c1)c1nc(-c2ccccc2)cs1	-21.0%
CCCc1cc(=O)n2[nH]c(SCc3ccccc3)nc2n1	-15.8%
Cc1cc(C(=O)COC(=O)c2cccs2)c(C)n1-c1c(C)n(C)n(-c2ccccc2)c1=O	-15.1%
O=C(COC(=O)c1cccc(S(=O)(=O)N2CCCCC2)c1)NC1CCCc2ccccc21 (configuration not stated)	-10.2%
O=C(Nc1ccccc1)c1ccc(NCc2cccnc2)c(S(=O)(=O)N2CCOCC2)c1	1.5%
CCOc1ccc(NC(=O)c2oc3ccccc3c2NC(=O)CC)cc1	?
Nc1nnc(SCc2ccc3c(c2)OCO3)s1	-2.1%
Cc1ccc(C)c(Cn2cnc3c(cnn3C(C)(C)C)c2=O)c1	22.4µM*
Cc1cc(Br)ccc1OCCn1ccnc1	-13.2%
Cc1ccc(O)c(C(=O)c2cnn(-c3ccc(S(=O)(=O)N4CCOCC4)cc3[N+](=O)[O-])c2)c1	-9.7%
CCc1nnc(NC(=O)CSc2nnc(-c3ccoc3C)n2-c2ccccc2)s1	-5.5%
Cc1cccc(C2=NN(c3ccccc3)[C@@H](C(=O)N3CCOC3=O)[C@@H]2c2ccc([N+](=O)[O-])cc2)c1	-12.7%
CCOC(=O)N1CCN(C(=O)c2ccc3nc(SCc4ccc(F)cc4)n(C)c3c2)CC1	-0.9%
CC(=O)N1CCN(c2ccc(NCc3ccc(C)cc3)cc2)CC1	0.1%
COc1ccc2nc(NC(=O)CSc3nccc(C)n3)sc2c1	-23.2%
CCn1cc(C(=O)NC2CCc3ccccc32)c(=O)c2ccc(C)nc21 (configuration not stated)	-14.5%
O=C(Cn1nc(-c2ccccc2)c2ccccc2c1=O)NCC1CCCO1 (configuration not stated)	-15.8%
CCOC(=O)c1cc2sccc2n1CC(=O)N1CCc2ccccc21	0.6%
CCOC(=O)c1cnc(SCc2nc(N)nc(Nc3ccc(C)cc3)n2)nc1N	-26.0%
Cc1cc(Nc2ccc(F)cc2Cl)n2ncnc2n1	-20.3%
COc1cc(OC)cc(-n2nnnc2SCC(=O)Nc2nc3c(s2)CCCC3)c1	-2.0%
C=CCn1c(C)cc(C(=O)CSc2n[nH]c(N)n2)c1C	-11.9%
CSc1nncc(/C(C)=N\Nc2ccccc2)n1	-19.5%
CC1(C)CC(=O)C/C(=N\NC(=O)Cc2ccccc2)C1	-8.9%
CC(C)OCC(O)CN1CCN(CC(O)COc2ccc3c(c2)OCO3)CC1 (configuration not stated)	-9.5%
COCC(=O)N1CCc2nc(-c3ccccc3)c3c(c2C1)CO[C@@H](C)C3	-10.6%
O=C(CSc1nc(N2CCCCC2)nc(N2CCCCC2)n1)N1CCc2ccccc21	-6.7%
[N-]=[N+]=Nc1ccc(C(=O)CSC[C@H](NC(=O)CC[C@H](N)C(=O)O)C(=O)NCC(=O)O)cc1	-7.3%
Cc1ccc(NC(=O)c2ccc(-c3nn(C)c(=O)c4ccccc34)cc2)cc1	17.8µM*
Cc1nnc(SCC(=O)NC2CC2)n1CCc1ccccc1	-10.2%
CCCNC(=O)c1ccc2c(c1)ncn2-c1ccccc1OC	17.8µM*
O=C(COC(=O)C1CCC1)Nc1ccc(Oc2ccccc2)cc1	-19.2%
COc1ccccc1OCC(O)CO (configuration not stated)	-4.5%
CC1(C)CC(=O)C2=C(C1)Nc1cc3c(cc1C2c1ccc2c(c1)OCO2)OCO3 (configuration not stated)	?
COCCOC(=O)c1[nH]c2c(c1C)C(=O)CC(c1ccc(N(C)C)cc1)C2 (configuration not stated)	-6.3%
COc1cccc(-c2ccc3ncnc(NCc4cccs4)c3c2)c1	?
CC(C)(C)c1ccc(CN2N=Nc3ccccc3S2(=O)=O)cc1	?
Other records:
SMILES	HPGD block
CC(O)c1nc2ccc(Cc3ccc4nc(C(C)O)[nH]c4c3)cc2[nH]1 (configuration not stated)	-13.6%
COc1cc(NC(=O)COc2c(C)cc(C)cc2[N+](=O)[O-])c(OC)cc1Cl	-8.2%
CCOc1cc(/C=N/NC(=O)CN(CCc2ccccc2)S(=O)(=O)c2ccc(NC(C)=O)cc2)ccc1O	-13.9%
COC(=O)C(CCSC)NC(=O)C(NC(=O)C1CCC(C)CC1)C(C)C (configuration not stated)	3.7%
CCOC(=O)C1CCCN(S(=O)(=O)c2ccc(F)c(C(=O)Nc3ccc(F)c(F)c3)c2)C1 (configuration not stated)	-9.8%
Cc1cc(NC(=O)COC(=O)COc2ccc3c(c2)CCC3)no1	-6.1%
CC(=O)NC1CCC(C(=O)O)(c2ccccc2)C1 (configuration not stated)	-4.1%
Cc1ccc(S(=O)(=O)N(CC(=O)NCc2ccco2)C2CCCCC2)cc1	-16.6%
CC(NC(=O)COC(=O)Cc1ccsc1)c1ccccc1 (configuration not stated)	-12.7%
O=c1oc(-c2ccco2)nc2c1cnn2-c1ccccc1	-15.4%
O=C(C[n+]1cc(-c2ccc(Cl)cc2)n2c1CCC2)N1c2ccccc2Sc2ccccc21	-10.2%
O=C(NC1CCS(=O)(=O)C1)OC1CCCCC1 (configuration not stated)	-1.1%
CC1CCCC(C(=O)O)N1C(=O)CCSC(=O)c1ccccc1 (configuration not stated)	-5.9%
CCCC(=O)NC1=C(C#N)C2(CCCCC2)Cc2ccccc21	-29.5%
O=C(NNS(=O)(=O)c1ccccc1)c1cccnc1	-7.3%
Cc1cc(C)cc(NS(=O)(=O)c2ccc3[nH]cc(C(=O)N4CCc5ccccc54)c(=O)c3c2)c1	-25.7%
CC(NC(=O)C12CC3CC(CC(C3)C1)C2)C(=O)N/N=C/C1=C(N2CCOCC2)C(=C\c2cccc([N+](=O)[O-])c2)/CC1 (configuration not stated)	-17.1%
Cc1ccc(N2C(=O)c3ccc(C(=O)O)cc3C2=O)cc1C	-28.4%
O=C(NNc1cccc(Cl)n1)Nc1ccccc1	-11.8%
COc1ccccc1C1/C(=C(/O)c2ccc(C)cc2)C(=O)C(=O)N1CC(C)O (configuration not stated)	-10.4%
O=C(c1ccco1)N1CCN(Cc2nc3ccccc3c(=O)n2-c2ccc(F)cc2)CC1	4.3%
O=C(Cn1cnc2ccc(Cl)cc2c1=O)c1cccs1	-2.3%
Cc1nn(C)cc1/C=N/n1nnnc1N	-9.5%
COc1ccccc1NS(=O)(=O)c1cc(NC(=O)c2ccc3ccccc3n2)ccc1Cl	-6.6%
COc1cccc(C(=O)Nc2nc(C)cs2)c1	?
COc1ccc(N2C(=O)/C(=C/c3cccs3)NC2=S)cc1	3.55µM*
CCOC(=O)c1c(-c2cccc(C)c2)csc1NC(=O)c1c(-c2ccccc2)noc1C	?
O=c1[nH]c2ccc(S(=O)(=O)Nc3ccc(-c4nnc5n4CCCCC5)cc3)cc2o1	0.199µM*
CC1(C)C2([N+](=O)[O-])CN3CC1([N+](=O)[O-])CN(C2)C31CCCC1	-21.5%
O=C(Cc1ccccc1)NC1CCN(C(=O)NCc2ccccc2)CC1	-7.3%
CC1=NN(Cc2ccccc2)C(=O)/C1=C/c1ccc(N(C)C)cc1	-18.4%
COc1ccc(S(=O)(=O)N2CCN(c3cccc(C)c3C)CC2)cc1	-1.9%
CCCC(=O)c1ccc(N2CCC(C)CC2)c(F)c1	14.1µM*
O=C(Nc1ccc2c(c1)ncn2-c1ccccc1)c1ccco1	31.6µM*
CCOc1ccc(C(=O)OCC(=O)NCc2ccco2)cc1OCC	-5.8%
CCN1CCN(C(=O)c2cc3c(=O)n4ccccc4nc3n2Cc2ccccc2)CC1	?
Cc1ccnc2nc(C(=O)NC3=NCCS3)nn12	-1.0%
C=CCN1C(=NC(=O)CCCC(=O)O)SC2CS(=O)(=O)CC21 (configuration not stated)	-3.1%
C/C(=N\Nc1ccc([N+](=O)[O-])cc1)c1ccc(-n2nncc2C(C)(C)C)cc1	-7.1%
CC(C)c1ccccc1NC(=O)c1cccc(NC(=O)c2ccccc2)c1	-6.8%

Laid out differently: 17 of the compounds above
| SMILES | HPGD block |
| --- | --- |
| O=C(c1ccco1)N1CCN(Cc2nc3ccccc3c(=O)n2-c2ccc(F)cc2)CC1 | 4.3% |
| O=C(Cn1cnc2ccc(Cl)cc2c1=O)c1cccs1 | -2.3% |
| Cc1nn(C)cc1/C=N/n1nnnc1N | -9.5% |
| COc1ccccc1NS(=O)(=O)c1cc(NC(=O)c2ccc3ccccc3n2)ccc1Cl | -6.6% |
| COc1cccc(C(=O)Nc2nc(C)cs2)c1 | ? |
| COc1ccc(N2C(=O)/C(=C/c3cccs3)NC2=S)cc1 | 3.55µM* |
| CCOC(=O)c1c(-c2cccc(C)c2)csc1NC(=O)c1c(-c2ccccc2)noc1C | ? |
| O=c1[nH]c2ccc(S(=O)(=O)Nc3ccc(-c4nnc5n4CCCCC5)cc3)cc2o1 | 0.199µM* |
| CC1(C)C2([N+](=O)[O-])CN3CC1([N+](=O)[O-])CN(C2)C31CCCC1 | -21.5% |
| O=C(Cc1ccccc1)NC1CCN(C(=O)NCc2ccccc2)CC1 | -7.3% |
| CC1=NN(Cc2ccccc2)C(=O)/C1=C/c1ccc(N(C)C)cc1 | -18.4% |
| COc1ccc(S(=O)(=O)N2CCN(c3cccc(C)c3C)CC2)cc1 | -1.9% |
| CCCC(=O)c1ccc(N2CCC(C)CC2)c(F)c1 | 14.1µM* |
| O=C(Nc1ccc2c(c1)ncn2-c1ccccc1)c1ccco1 | 31.6µM* |
| CCOc1ccc(C(=O)OCC(=O)NCc2ccco2)cc1OCC | -5.8% |
| CCN1CCN(C(=O)c2cc3c(=O)n4ccccc4nc3n2Cc2ccccc2)CC1 | ? |
| Cc1ccnc2nc(C(=O)NC3=NCCS3)nn12 | -1.0% |

Further structures follow.
SMILES	HPGD block
O=C1CC(c2ccc(F)cc2)c2cc3c(cc2N1)CCC3 (configuration not stated)	-18.8%
CCCn1cc(C(CC(=O)O)C(=O)O)c2ccccc21 (configuration not stated)	-14.9%
COc1ccc(NC(=O)C(OC(=O)c2ccc([N+](=O)[O-])o2)c2ccccc2)cc1Cl (configuration not stated)	-19.7%
Nc1nonc1C(=O)OCC(=O)c1ccc(Cl)cc1	-2.1%
Cc1cn(C(=O)c2ccccc2)c(=S)n1-c1ccc(Cl)cc1	?
COc1ccc(C)cc1-n1nnnc1SCc1nc2ccccc2s1	-21.6%
O=C(CCCN1C(=O)c2ccccc2C1=O)Nc1nncs1	-1.1%
CCCOc1ccc(N2C(=O)CC(N3CCC(c4nncn4CC)CC3)C2=O)cc1 (configuration not stated)	-9.1%
O=C1c2oc3ccccc3c(=O)c2C(c2cccs2)N1CCCN1CCOCC1 (configuration not stated)	-21.5%
Cc1ccc(C(=O)C2CCNCC2)cc1	-25.7%
COc1ccccc1NC(=S)Nc1ccccn1	-11.7%
CC(C)Sc1nc(N)c2c3c(sc2n1)CN(C)CC3	?
COc1ccc(OCC(=O)NC(=S)Nc2ccc(N3CCOCC3)c(Cl)c2)cc1	?
Cc1ccccc1NC(=S)NC1CCN(Cc2ccccc2)CC1	-6.6%
O=C(N/N=C/c1ccc(-c2ccccc2[N+](=O)[O-])o1)[C@H]1C[C@@H]1c1ccccc1	-12.9%
Cc1ccc(S(=O)(=O)N(C)C)cc1-n1c(SCC(=O)Nc2ccccc2)nc2ccccc2c1=O	-11.7%
CCc1cc2c(N=Nc3c(O)[nH]c4ccccc34)ncnc2s1	-10.1%
CSc1nc(SCCO)c2sc3nc(-c4ccco4)c4c(c3c2n1)CC(C)(C)OC4	?
COc1ccc(CN2C(=O)c3ccccc3C2=O)cc1C(=O)OCC(=O)NC1CCCCC1	-22.6%
Cc1ccc(C(=O)n2c(-c3ccccc3)cnc2SCC(=O)Nc2ccccc2)cc1	-21.6%
